From PubChem BioAssay
Beta cell apopt = inhibitors of cytokine-induced beta cell apoptosis, primary screen, luminescence | INS-1E cytokine-induced death, ATP luminescence, 48 h; percent of positive-control rescue, neutral wells zero | protection from apoptosis, % (concentration not given with the values) | 300,000 compounds, 0.8% hits | AID 435005, 2010;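 active = all replicates at 75% or more, or half of them and the mean; inconclusive = half reach 75% but not the mean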;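 also: 0% = cytokine-treated negative control wells and 100% = positive control rescue; higher means more ATP so stronger rescue from cytokine killing; wells of about 40 µL received 100 nL stock; the first replicate is given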
Calb FLC = C. albicans growth inhibition with fluconazole, primary screen, CaCi-2 strain, Alamar Blue fluorescence | C. albicans CaCi-2 (fluconazole-resistant clinical isolate) + fluconazole, 48 h | growth inhibition, % (test concentration not listed) | 300,000 compounds, 0.57% hits | AID 1979, 2009;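 active = most replicates above 75%; inconclusive = exactly half above 75%; inactive = most below 75%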;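 also: all wells also contain fluconazole at 8 µg/ml as a sub-toxic cotreatment; 0% = median of DMSO wells and 100% = median of geldanamycin control wells; wells of about 8 µL received 7.5 nL stock; the first replicate is given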
Bfl-1 A1 inh = caspase 3/7 activation in MEF A1-2A-BIM cells, primary screen, A1 inhibitor project, cell-based, luminescence, HTS; caspase activation, % (concentration not given with the values); Caspase-Glo 3/7 luminescence, 3 h; percent of clofoctol response, vehicle zero; AID 2462, 2010; 330,000 compounds, 0.066% hits;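 active = over half of replicate activation scores above 10%, or exactly half above 10 with the replicate mean above 10; inconclusive = replicate mean below 10 yet half the replicates above 10; inactive = over half of replicates below 10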;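 also: wells of about 30 µL received 50 nL stock; many hits fall short of the cut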
T cruzi inh = inhibitors of intracellular T. cruzi growth, primary screen, luminescence, NIH3T3 host cells; T. cruzi beta-gal in NIH3T3, 90 h; inhibition, % (no concentration beside the values); 300,000 compounds, 1.4% hits;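 active = mean inhibition across valid replicates above about 55%, limit read from the data; inconclusive = mean below that limit but half or more replicates reach it; inactive = mean below it, under half of replicates reach it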;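 also: signal also drops with host cell toxicity which is not excluded here; 0% = plate median of DMSO wells and 100% = zero luminescence signal; higher percent means less beta-gal luminescence so fewer parasites; stock transfer was 50 nL into about 50 µL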
LANA-H2B inh = blockers of LANA interaction with H2A/H2B – biochemical, FP readout, HTS, primary screen | Protein LANA1 (Human herpesvirus 8 type P (isolate GK18)), Q9QR71 | cell-free LANA-H2A/H2B peptide, fluorescence polarization | inhibition, % (test concentration not listed) | 320,000 compounds, 0.6% hits | AID 2629, 2010; in the data active = inhibition mostly above about 10%, no sharp cut-off; inactive = mostly below about 6.7%;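 also: stock transfer was 7.5 nL into about 10 µL; 0% = median of vehicle wells and 100% = median of positive control wells; one replicate is shown; the record names a cut of 25% in any replicate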
Beta2AR agonist = beta2AR agonists driving receptor internalization, primary screen, cell-based, FAP fluorogen, flow cytometry; Beta-2 adrenergic receptor (Homo sapiens), P07550; Am2.2-beta2AR cells; reference of the scale not given here; response, % (no concentration beside the values); 340,000 compounds, 0.43% hits;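 active = response above a set limit, near 3 SD of response in nonfluorescent compounds, cut at about 42% in these data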;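 also: stock transfer was 100 nL into about 11 µL; a reference agonist was the positive control; negative values mostly stem from fluorescent compounds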
Target sequence (P07550 whole entry, looked up): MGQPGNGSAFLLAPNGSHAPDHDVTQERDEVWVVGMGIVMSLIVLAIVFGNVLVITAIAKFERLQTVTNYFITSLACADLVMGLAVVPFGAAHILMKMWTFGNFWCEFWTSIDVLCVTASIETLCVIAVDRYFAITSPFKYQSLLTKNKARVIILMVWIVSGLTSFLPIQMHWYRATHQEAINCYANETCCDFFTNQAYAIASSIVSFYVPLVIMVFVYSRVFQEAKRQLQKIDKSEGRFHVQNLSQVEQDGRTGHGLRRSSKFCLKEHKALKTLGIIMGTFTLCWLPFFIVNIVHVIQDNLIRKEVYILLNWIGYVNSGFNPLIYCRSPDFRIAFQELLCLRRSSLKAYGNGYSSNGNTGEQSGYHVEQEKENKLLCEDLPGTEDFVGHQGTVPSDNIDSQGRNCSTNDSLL
UCH37 inh = inhibitors of human UCH37 deubiquitinase, primary screen, biochemical, Ub-AMC cleavage, fluorescence. Ubiquitin carboxyl-terminal hydrolase isozyme L5 (Homo sapiens), Q9Y5K5. purified proteasome/UCH37. inhibition, % (concentration not given with the values). 330,000 compounds, 0.33% hits. AID 588478, 2011;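 active = mean of two replicates above 20%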;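 also: 0% = compound-free wells with enzyme and 100% = wells lacking proteasome; stock transfer was 100 nL into about 20 µL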
Target sequence (Q9Y5K5 whole entry, looked up): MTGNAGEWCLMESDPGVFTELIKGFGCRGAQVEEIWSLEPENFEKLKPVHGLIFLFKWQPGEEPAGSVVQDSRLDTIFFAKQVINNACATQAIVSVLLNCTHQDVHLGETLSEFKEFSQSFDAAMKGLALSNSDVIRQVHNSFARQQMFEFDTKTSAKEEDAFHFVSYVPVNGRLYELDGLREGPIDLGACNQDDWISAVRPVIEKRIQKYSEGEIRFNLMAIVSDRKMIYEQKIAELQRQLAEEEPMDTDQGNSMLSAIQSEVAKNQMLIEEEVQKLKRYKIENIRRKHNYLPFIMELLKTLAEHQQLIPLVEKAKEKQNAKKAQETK
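assay system = human UCH37 enzyme supplied as purified proteasome complex | amount = proteasome at 0.15 nM in the dispensed enzyme solution | schedule = 30 min compound-proteasome preincubation then 25 min substrate reaction, room temperature | measured by = fluorescence, ex 355 nm, em 460 nm | benchmarks = no-proteasome wells (full inhibition) and compound-free wells (no inhibition)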
RanGTP-Imp inh = inhibitors of RanGTP-importin-beta interaction, primary screen, biochemical, FRET, CFP-Ran, YFP-importin-beta, homogeneous | Ran GTPase (GTP-bound) - importin-beta complex | cell-free CFP-Ran/YFP-importin-beta FRET ratio | inhibition, % (test concentration not listed) | 300,000 compounds, 1.1% hits;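 active = most replicates above 15%; inconclusive = exactly half above 15%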;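 also: 0% = DMSO wells and 100% = Ran loaded with GDP instead of GTP; wells of about 40 µL received 100 nL stock; the first replicate is given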
An asterisk follows results filed as active; u = inconclusive; x = not tested or not shown.

SMILES	Beta cell apopt	Calb FLC	Bfl-1 A1 inh	T cruzi inh	LANA-H2B inh	Beta2AR agonist	UCH37 inh	RanGTP-Imp inh
COc1ccccc1N1CCN(C(=O)C2CCN(S(=O)(=O)c3ccccc3)CC2)CC1	-2	-4	0.8	7	-0.5	1	0.9	3.4
COc1ccc(OC)c(/C=C/C(=O)OCC(=O)Nc2cccc(C(C)=O)c2)c1	-3	-2	-0.4	14	-1.1	-3	-246	-0.9
O=C(COC(=O)c1cccs1)NCCN1C(=O)CSC1=O	-1	-1	0.3	-1	1.1	-4	1.5	5.3
CC(=O)N1CCN(c2ccc(NC(=O)c3ccc(OCc4ccccc4)cc3)cc2)CC1	1	1	0.7	6	3.5	2	-9.5	3.9
Cc1ccc(NC(=O)C(c2ccccc2)N(C)C)cc1Cl (stereo not given)	0	3	-0.6	10	12*	0	6.4	0.6
COC(=O)C1CN(C(=O)C(C)Oc2ccccc2Cl)c2ccccc2O1 (stereo not given)	2	-4	-0.1	3	4.5	4	3.3	1.4
Cc1ccccc1-n1c(SCC(=O)NC(N)=O)nc2sc(-c3ccccc3)cc2c1=O	x	-1	2.1	6	-1.2	-7	-12	2.1
CCNCc1ccccc1OCc1ccccc1	3	6	0.1	-15	1.0	-4	2.5	4.6
COc1ccc(-c2noc(C(C)NC(=O)c3ccco3)n2)cc1OC (stereo not given)	-2	-3	-0.4	-6	-7.3	2	1.7	4.3
COC(=O)CCCC1=CC2=C(c3ccccc3)C(=O)C(C)(OC(=O)C3CCCC3)C(=O)C2=CN1CC1CC1 (stereo not given)	-5	-3	-0.9	17	-0.1	0	6.3	1.1
CCOC(=O)C1CCCN(Cc2nc(Cc3ccccc3Cl)no2)C1 (stereo not given)	-7	44	0.0	15	0.9	7	1.9	1.0
CCc1ccccc1NC1=NCC(=O)N1Cc1ccccc1	-5	2	1.6	-11	2.4	1	4.1	-4.3
CC1=C(C(=O)Nc2ccccc2C)C(c2cccs2)NC(=S)N1 (stereo not given)	4	4	0.1	-11	2.2	7	1.0	2.4
Cc1[nH]c(=O)cc2ccccc12	-9	3	0.4	0	8.2	-5	1.9	-9.4
CCCCNCC#CCOc1cc(C)ccc1C(C)C	x	-55	-0.2	27	-7.8	2	4.7	0.6
CN(C)c1oc(/C=C/c2cccs2)nc1S(=O)(=O)c1ccccc1	6	-3	0.6	46	1.8	1	x	-3.7
O=C(NCCOc1ccc(F)cc1)c1ccccc1SCc1ccccc1	6	u	0.3	23	6.3	35	2.3	3.5
Cc1[nH][nH]c(=O)c1C(c1ccc(F)cc1)c1c(C)[nH][nH]c1=O	x	4	0.4	-17	-0.6	11	1.7	-0.9
COc1ccc(N(Cc2cc3cccc(C)c3[nH]c2=O)S(C)(=O)=O)cc1	0	37	1.2	-4	-1.3	-5	-1.8	4.1
CNS(=O)(=O)c1ccc(C(=O)NCC(=O)NCCC(c2ccccc2)c2ccccc2)cc1	-3	x	-0.6	x	0.1	8	4.6	x
CCOc1ccc(N2CC(C(=O)Nc3cc(S(=O)(=O)N4CCCCC4)ccc3C)CC2=O)cc1 (stereo not given)	3	x	-0.1	x	-1.0	8	0.6	x
Cc1ccccc1/C=C/C(=O)c1ccc([N+](=O)[O-])o1	122*	16	11*	50	5.2	x	-1.3	-0.2
CC1Cc2ccccc2N1CC(=O)Nc1ccc(N2CCOCC2)cc1 (stereo not given)	5	-2	-0.1	19	1.4	-1	1.4	1.5
COC(=O)c1ccc(CNC(=O)CSc2nc3sc(C)c(C)c3c(=O)n2C)o1	x	8	0.3	-5	2.1	5	3.3	4.2
CC(=O)OC1CCC2C3CCC4=CC(=O)CCC4(C)C3CCC2(C)[C@]1(C)O (stereo not given in full)	21	-11	0.6	0	0.9	1	-1.3	-1.3
SMILES	Beta cell apopt	Calb FLC	Bfl-1 A1 inh	T cruzi inh	LANA-H2B inh	Beta2AR agonist	UCH37 inh	RanGTP-Imp inh
CCOc1nc2cnccc2n(CC(=O)Nc2ccccc2C(=O)OC)c1=O	-5	-3	0.1	5	-0.6	1	-1.9	0.6
CCC(C(=O)OC)n1cnc2c(nnn2-c2cccc(Cl)c2)c1=O (stereo not given)	3	1	0.1	-7	-8.6	-3	1.5	u
CN1CCC(OC(=O)COc2ccc(C(C)(C)C)cc2)CC1	0	-23	-0.9	8	-1.5	6	-0.6	3.3
CCOc1ccccc1NC(=S)N1CCN(c2ccccc2F)CC1	0	-20	0.1	12	-4.4	4	x	-2.5
O=C(CNc1ccc(F)cc1F)NC(=O)NCc1ccco1	-2	-3	-0.2	-16	2.1	0	-0.5	-0.8
COc1ccc(C2C3=C(CCCC3=O)Nc3nc(-c4cc(OC)c(OC)c(OC)c4)nn32)cc1OC (stereo not given)	0	12	-0.5	14	1.1	0	-2.7	0.8
O=C(c1sc2cc(F)ccc2c1Cl)N1CCN(c2ccccc2)CC1	-2	49	0.7	-6	3.4	-1	4.1	-2.1
O=C(Nc1cc(Cl)ccc1-n1cncn1)c1cccs1	0	2	-1.0	-6	1.7	-21	0.7	2.5
O=C(COc1ccc(S(=O)(=O)N2CCOCC2)cc1Cl)NCCN1CCOCC1	-2	1	-0.7	-3	3.2	0	-2.0	-0.1
CC(Nc1nc(-c2cccc(Br)c2)cs1)c1nc2cc(Cl)c(N3CCCCC3)cc2n1CCOCCO (stereo not given)	4	-17	0.5	16	-0.8	-1	3.9	0.0
CCOC(=O)C1CCN(Cc2ccc(OC)c(OCc3ccccc3)c2)CC1	-7	8	0.2	-35	-3.9	-5	1.7	3.0
OC(CNCCC(c1ccccc1)c1ccccc1)COc1ccccc1 (stereo not given)	6	-6	-0.6	2	5.3	12	2.2	-1.8
CCn1ccnc1CN(C)C(=O)c1ccc(OC2CCN(CCc3ccccc3)CC2)cc1	x	-1	x	11	x	-9	3.8	2.1
O=C(Nc1nc(-c2ccco2)c(-c2ccco2)s1)C1CCC1	-7	-15	-1.0	0	1.1	-9	-4.7	-1.9
CN(C)c1cccc(C(=O)OCC(=O)NCc2ccco2)c1	4	-26	0.5	-21	-9.2	-5	1.3	-4.8
COC(=O)c1ccc(CN(c2ccc(OC)cc2)S(=O)(=O)c2ccccc2)cc1	-3	-10	0.8	-37	0.7	-4	6.2	-0.1
Cc1cc(-c2nc(C)c(C(=O)NNS(=O)(=O)c3ccccc3)s2)no1	-5	-3	0.6	-7	4.3	2	3.0	-0.2
COC(=O)CCC(=O)Nc1ccc(S(=O)(=O)Nc2cc(OC)nc(OC)n2)cc1	-2	-1	1.6	5	-5.4	-3	0.7	-2.2
Cc1noc(C)c1C(=O)N1CCCC(C(=O)c2ccc(Cl)cc2)C1 (stereo not given)	x	6	-0.3	14	-5.9	-2	1.5	5.4
CCc1cccc(NC(=S)N2CCC(c3ccccc3)C2)c1 (stereo not given)	-1	-1	0.1	-7	3.2	-1	2.9	1.4
Cc1cc(NC(=O)CSc2nnc(-c3c[nH]c4ccccc34)n2-c2ccc(F)cc2)no1	6	x	-0.4	x	0.7	-5	5.1	x
Cc1cc(C)n(Cc2cccc(C(=O)N/N=C/c3ccncc3)c2)n1	-3	-7	0.1	-15	-5.6	-17	x	-1.8
Cc1cc2c(ncn2Cc2ccccc2)c([N+](=O)[O-])c1C	2	13	0.1	-2	4.7	-6	1.5	u
CC(C)COP(=O)(OCC(C)C)C(O)c1ccc(N(C)C)cc1 (stereo not given)	x	-9	1.1	9	4.3	2	2.3	4.2
Nc1ccc2c(c1)CCC2=O	-2	6	-0.4	-17	-0.3	-2	0.2	u
SMILES	Beta cell apopt	Calb FLC	Bfl-1 A1 inh	T cruzi inh	LANA-H2B inh	Beta2AR agonist	UCH37 inh	RanGTP-Imp inh
Cc1cccc(NC(=O)c2cc(-c3ccc(C)c(C)c3O)n[nH]2)c1	0	12	-11	-13	2.1	-3	2.3	-3.1
CCOC(=O)C1CCN(C(=O)CCNC(=O)Cn2cnc3ccccc3c2=O)CC1	0	-3	0.8	-7	1.3	-2	-0.3	-3.2
Cc1cnc(NC(=O)C2CCCO2)s1 (stereo not given)	0	-23	-2.7	-5	0.0	3	3.5	2.6
CCOc1ccccc1N(C(=O)c1snc(C(N)=O)c1N)C(C(=O)NCc1ccccc1)c1ccc(O)cc1 (stereo not given)	x	8	x	-4	x	-8	-29	9.2
Cc1cccc(C(=O)O)c1NC(=O)c1ccc(F)cc1	-3	-2	-1.2	-9	2.3	2	4.8	1.1
CC1CN(Cc2ccccc2)c2nc3c(c(=O)n(C)c(=O)n3C)n2C1 (stereo not given)	-5	21	-0.7	6	1.6	6	2.1	-1.4
Cc1ccc(OCC(=O)Nc2cccc3nsnc23)c(C)c1	-7	-6	-2.0	6	-4.6	4	-138	2.1
Cc1ccc(NC(=S)NNC(C)(C)C)cc1	-3	-18	0.7	-20	6.2	1	0.1	1.8
CCCC(=O)Nc1nc2nc(C)cc(=O)n2[nH]1	-1	-3	0.2	-11	-2.9	4	5.3	0.2
CC(C(=O)OCC(=O)c1ccc([N+](=O)[O-])cc1)N1C(=O)C2C3C=CC(C3)C2C1=O (stereo not given)	3	3	0.2	-2	-0.5	-3	2.5	-2.2
CC(C)c1ccc(/C=N/NC(=O)c2c(Cl)cnn2C)cc1	0	-4	-3.3	-2	1.7	6	x	4.0
Cc1nc2ccccc2c2nc3ccccc3n12	8	-29	0.3	-3	-4.8	-15	-6.6	u
Cc1ccc(OCCCCN2CCCCC2)c(Br)c1	0	-2	0.5	55*	-5.6	2	0.6	3.1
COC(=O)C1CCN(C(=O)c2sc3nc(-c4ccccc4)cn3c2C)CC1	-9	1	0.0	11	-3.4	-1	2.4	-7.4
CCSc1nnc2ccc(-c3cccs3)nn12	1	2	-0.7	3	4.7	6	-7.2	-0.3
O=C(Nc1ccc(F)cc1)N1CCN(C/C=C/c2ccccc2)CC1	-1	-19	0.0	0	5.4	-5	2.4	2.4
Cc1cc(Cl)c(OCCCCNC(C)(C)C)c(Br)c1	1	-9	0.1	29	-7.6	x	0.4	2.6
CCc1ccccc1NC1=NCC(=O)N1C1CCCC1	-3	u	-0.1	-6	-0.9	4	1.0	2.5
Cc1cc(C(=O)OCC(=O)N2CCCC2)c2ccccc2n1	6	-3	0.6	-3	4.4	-8	-4.2	-1.4
Cc1cccc(OCC(O)CN2CCN(c3ccccn3)CC2)c1C (stereo not given)	0	-4	0.2	2	3.6	-2	2.3	1.1
COc1ccccc1NS(=O)(=O)c1ccc(C)c(NC(=O)c2c(C)noc2C)c1	-5	x	-0.7	x	1.1	5	-2.9	x

Compounds were not picked by outcome; overall some 4.3% were active at least once.
